Screening results (PubChem BioAssay)
MbtI inh – MbtI salicylate synthase inhibitors, primary screen, biochemical, fluorescence intensity. purified MbtI enzyme, fluorescence intensity read-out. inhibition, %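 (about 17 µg/mL by stock and volumes)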. hit rate 0.89% among 100,000;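 active = above 50% in both replicates, above 80% if mildly self-fluorescent; inactive = the rest, strongly fluorescent compounds included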;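 also: 0% = mean of negative and 100% = mean of positive controls; one replicate is shown; some compounds called inactive have numbers as strong as hits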
Target sequence (P9WFX0 whole entry, looked up): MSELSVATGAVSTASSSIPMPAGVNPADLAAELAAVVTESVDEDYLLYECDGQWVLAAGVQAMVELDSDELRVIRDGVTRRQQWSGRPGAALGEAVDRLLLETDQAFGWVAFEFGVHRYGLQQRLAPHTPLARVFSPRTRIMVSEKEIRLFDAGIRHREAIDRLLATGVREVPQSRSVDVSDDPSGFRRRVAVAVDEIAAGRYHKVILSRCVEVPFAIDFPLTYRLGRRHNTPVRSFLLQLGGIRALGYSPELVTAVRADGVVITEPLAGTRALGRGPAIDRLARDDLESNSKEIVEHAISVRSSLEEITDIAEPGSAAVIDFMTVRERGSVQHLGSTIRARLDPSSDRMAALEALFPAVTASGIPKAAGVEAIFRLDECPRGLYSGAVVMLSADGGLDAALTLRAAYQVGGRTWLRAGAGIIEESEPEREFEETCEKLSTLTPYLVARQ
MenB inh – M. tuberculosis MenB inhibitors, primary screen, biochemical, absorbance; hit rate 0.43% among 100,000; AID 540299, 2011; inhibition, %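 (about 12 µg/mL by stock and volumes)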; MenB enzyme assay, absorbance read-out; some hits fall short of the stated cut;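 active = mean of two replicates above 30%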;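 also: 0% = no compound and 100% = wells with inactive enzyme; the first replicate is given; strong numbers were not always called active; inactives centre near -10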
Polio RdRp inh – poliovirus RdRp elongation inhibitors, primary screen, biochemical, fluorescence polarization, total intensity; Genome polyprotein (Poliovirus type 1 (strain Mahoney)), P03300; poliovirus polymerase elongation; hits give low values; % elongation, % (compound at 16.7 µg/mL); hit rate 0.66% among 150,000; in the data active = % elongation below about 90%; also: some results filed as inactive read as strong as hits
Target sequence (P03300 1749-2209 limits assumed): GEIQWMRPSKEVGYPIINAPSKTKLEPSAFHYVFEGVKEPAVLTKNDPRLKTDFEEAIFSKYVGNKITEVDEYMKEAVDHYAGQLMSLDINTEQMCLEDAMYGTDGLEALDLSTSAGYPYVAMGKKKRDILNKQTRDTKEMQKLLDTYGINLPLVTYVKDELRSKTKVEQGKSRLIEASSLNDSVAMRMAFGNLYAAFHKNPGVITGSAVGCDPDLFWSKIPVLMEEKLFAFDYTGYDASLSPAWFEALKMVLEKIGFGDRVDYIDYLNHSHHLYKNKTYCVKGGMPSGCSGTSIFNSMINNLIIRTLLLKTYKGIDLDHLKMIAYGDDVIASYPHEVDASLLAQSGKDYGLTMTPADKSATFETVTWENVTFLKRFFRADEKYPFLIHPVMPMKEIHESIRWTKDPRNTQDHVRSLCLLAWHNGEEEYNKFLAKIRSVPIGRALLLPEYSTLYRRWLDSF
Polio RdRp inh intensity – recorded beside Polio RdRp inh, whose call it bears; % elongation; measured here: total intensity read-out; formula for this scale not given here;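 total fluorescence in place of polarization; lower means less elongation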
* = called active by the depositor; nt = no result given. An unsorted share of the library. Share with any hit: about 1.8%.

(1) C=CCN1C(=O)/C(=C\c2ccc(OC)cc2)C(=O)NC1=S
(2) Cn1c(=O)c2[nH]c(SCC(=O)C(C)(C)C)nc2n(C)c1=O
(3) CN(C(=O)COC(=O)c1cc(=O)c2ccccc2o1)c1ccccc1
(4) N#CC(=C1Nc2ccccc2N1)c1nc(C#N)c(C#N)nc1Cl
(5) CC(=O)N/C(=C\c1ccccc1)C(=O)OCc1nc(N)nc(Nc2ccccc2C)n1
(6) O=c1c2ccccc2ncn1CCOc1cccc(C(F)(F)F)c1
(7) Cc1ccc(S(=O)(=O)NC(C(=O)Oc2ccc3c4c(c(=O)oc3c2)CCCC4)C(C)C)cc1 (configuration not stated)
(8) O=C(NC(=S)N1CCCC1)c1ccccc1
(9) CCN(CC)C(=O)c1ccc(COc2ccccc2Cl)cc1
(10) CC(C)(C)c1ccc(N=Cc2ccccc2O)cc1
Compound,1,2,3,4,5,6,7,8,9,10
MbtI inh,95*,-17,-39,nt,4,-11,nt,4,-20,-8
MenB inh,-160,-12,-3,-18,1,9,-26,-29,-10,-14
Polio RdRp inh,99,104,102,101,102,102,107,101,100,101
Polio RdRp inh intensity,101,106,104,104,105,103,109,101,103,101

(11) CC1CCN(C(=O)Cn2c(SCC(=O)NC(C)(C)C)nc3ccccc32)CC1
(12) CCOc1ccc(C(N)CC(=O)OC)cc1 (configuration not stated)
(13) Cc1ccc(-n2nc(C(=O)N3CCCC3)c3c4ccccc4n(C)c3c2=O)cc1
(14) Cc1ccc(-c2nc3cccc(C)n3c2Nc2ccc3c(c2)OCCO3)o1
(15) O=C(NCCCN1CCCC1=O)c1ccccc1NS(=O)(=O)c1ccc(F)cc1
(16) COc1ccc(-c2noc(CN(C)C(=O)Cc3ccc(OC)c(OC)c3)n2)cc1
(17) O=C(Cc1c(F)cccc1Cl)OCN1C(=O)c2ccccc2C1=O
(18) O=C1CS/C(=N\S(=O)(=O)c2ccccc2)N1Cc1ccccc1
(19) CC(C)OC(=O)c1cc2c(ccn2-c2ccc(F)cc2)n1CCC#N
(20) CCOC(=O)c1c(/N=C/c2ccccc2O)sc(C)c1C
Compound,11,12,13,14,15,16,17,18,19,20
MbtI inh,-8,13,46,116,-20,9,-10,0,90,7
MenB inh,-16,-6,-17,-24,-4,24,-10,2,-46,-22
Polio RdRp inh,102,102,100,103,103,101,106,102,103,99
Polio RdRp inh intensity,104,101,101,101,103,101,112,108,100,99

(21) S=C(c1ccc(-c2ccccc2)o1)N1CCN(c2ccccc2)CC1
(22) CC1Cc2ccccc2N1C(=O)CSc1nncn1C (configuration not stated)
(23) CC(C)Cn1cnc2c1c(=O)n(CC(=O)N1CCc3ccccc31)c(=O)n2Cc1ccccc1
(24) CC(=O)/C=C(\O)c1ccc(Cl)cc1
(25) CC(C)(C)c1ccc(-c2noc(CCn3c(=O)oc4ccccc43)n2)cc1
(26) O=C(Nc1ccc(N2CCN(Cc3ccccc3Cl)CC2)cc1)c1ccc2c(c1)OCCO2
(27) CN(C)/C=C(\C#N)c1nc2ccccc2[nH]1
(28) NC(=O)COC(=O)Cc1cccc2ccccc12
(29) N#CC1C(=O)NC(=S)C(C(N)=O)C12CCCCC2 (configuration not stated)
(30) CCCC1CCC(C(=O)NC(C(=O)O)C(C)C)CC1 (configuration not stated)
Compound,21,22,23,24,25,26,27,28,29,30
MbtI inh,92*,-2,-13,8,-2,-12,9,6,10,8
MenB inh,2,nt,-26,-21,0,-11,-5,9,-18,-11
Polio RdRp inh,68*,100,105,114,106,100,103,104,99,100
Polio RdRp inh intensity,68*,96,102,114,98,103,107,99,103,100

(31) CCCCNC(=O)c1cn(CC)c2ccc(S(=O)(=O)N(C)C3CCCCC3)cc2c1=O
(32) CN(Cc1ccccc1)c1cc(N2CCC3(CC2)OCCO3)c2noc3c2c1C(=O)c1ccccc1-3
(33) NC(=O)COC(=O)COc1ccccc1
(34) Cc1cc(C)n2nc(C(=O)NCc3ccc4c(c3)OCO4)nc2n1
(35) Cc1ccc(Cl)cc1NC(=O)N1CCN2CCCCC2C1 (configuration not stated)
(36) COc1ccc(C/C(C#N)=C/N2CCN(c3ccccc3F)CC2)cc1
(37) CC1(C)Cc2cccc(C(=O)Nc3ccc(C(F)(F)F)cc3)c2O1
(38) Cc1ccc(N=Cc2ccncc2)cc1
(39) O=C(Nc1ccc(N2CCCC2)cc1)c1cc2ccccc2o1
(40) O=C(CCc1nc2ccccc2[nH]c1=O)OCC(=O)c1ccc(F)cc1
Compound,31,32,33,34,35,36,37,38,39,40
MbtI inh,-1,0,-6,-11,-26,3,-12,0,-2,7
MenB inh,-8,-9,nt,-7,-24,-16,-13,16,-50,12
Polio RdRp inh,101,75,100,103,103,nt,101,101,104,102
Polio RdRp inh intensity,103,196,106,107,103,nt,102,99,104,100

(41) N#CC(Cc1cccs1)c1nc2ccccc2[nH]1 (configuration not stated)
(42) O=C(COC(=O)c1ccccc1)NC1CCCCCC1
(43) COCC(C)n1c(COc2ccccc2F)nnc1SCC(=O)OC(C)(C)C (configuration not stated)
(44) O=C1Sc2ccc(S(=O)(=O)Nc3ccc(Br)cc3)c3cccc1c23
(45) CN1C(C(=O)Nc2cccnc2)=CC(c2ccco2)=NS1(=O)=O
(46) N#C/C(=C\c1ccccc1)C(=O)OCC1CCCO1 (configuration not stated)
(47) O=C1c2cccc3cc(Br)cc(c23)C(=O)N1Nc1ccc(Cl)cc1
(48) COc1cccc(CNC2CN3CCC2CC3)c1 (configuration not stated)
(49) O=C(c1cnc2ccccc2n1)N1CCN(S(=O)(=O)c2ccc3c(c2)OCCCO3)CC1
(50) O=C1CCCC2=C1C1(O)C(=O)c3ccccc3C1(O)O2 (configuration not stated)
Compound,41,42,43,44,45,46,47,48,49,50
MbtI inh,7,-8,1,-11,6,0,nt,-7,-5,14
MenB inh,-6,nt,-17,-13,-56,-5,-6,-29,-12,-31
Polio RdRp inh,101,102,100,104,106,97,107,102,98,78*
Polio RdRp inh intensity,107,107,100,110,100,105,107,102,104,79*

(51) COc1cccc(CN2CCc3[nH]c(=S)[nH]c(=O)c3C2)c1
(52) O=CNC1c2ccccc2Oc2ccccc21
(53) CCN(CC)C(=S)NCCc1ccccc1
(54) Cc1cc2c(c(=O)[nH]1)C(=O)O/C2=C\c1ccco1
(55) C/C(=N\NC(=O)Cc1cc(=O)[nH][nH]1)c1ccco1
(56) N#CC1(NC(=O)CNc2ccc(I)cc2)CCCC1
(57) COc1cc2c3c(c1OC)C1(C=CC(=NNC(N)=O)C=C1)CC3N(C(C)=O)CC2 (configuration not stated)
(58) Cc1c(/C=C(\C#N)C(=O)Nc2nccs2)cc(C#N)n1C
(59) Cc1cc(C)n2c(SCC(N)=O)nnc2n1
(60) CSc1ccccc1C(=O)N1CCN(c2ccccc2)CC1
Compound,51,52,53,54,55,56,57,58,59,60
MbtI inh,35,6,-7,14,7,6,-6,38,26,11
MenB inh,-30,-20,5,-316,-67,1,-22,0,6,9
Polio RdRp inh,102,101,101,107,104,112,104,97,98,95
Polio RdRp inh intensity,101,102,105,157,103,127,101,103,100,96

(61) N#Cc1ccccc1-c1ccccc1C(=O)O
(62) CCN(CC)S(=O)(=O)c1ccc(N=Nc2sc(N)nc2-c2ccccc2)cc1
(63) N#C/C(C(N)=O)=C1/CCc2ccccc2N1
(64) CC1(C)CC(=O)C(C=NCCN2CCN(C3CC(=O)N(c4ccc(Br)cc4)C3=O)CC2)=C(O)C1 (configuration not stated)
(65) CCC1CCCCN1C(=O)C1CCCCC1 (configuration not stated)
(66) CCOC(=O)c1c(C)oc2c1c1c(c3ccccc32)OCN(CCc2ccccc2)C1
(67) CCn1cc2c(n1)C(=O)N(c1ccccc1)C1c3ccccc3C(=O)N21 (configuration not stated)
(68) Cc1oc2nc[nH]c(=O)c2c1C(=O)O
(69) CC1CCN(S(=O)(=O)c2ccc(C(=O)Nc3nc(-c4ccncc4)cs3)cc2)CC1
(70) O=C(Cc1cccs1)Nc1cccc(-c2nn[nH]n2)c1
Compound,61,62,63,64,65,66,67,68,69,70
MbtI inh,-8,1,4,8,-2,10,27,3,0,-17
MenB inh,5,-27,-22,11,-12,9,-23,16,-33,-9
Polio RdRp inh,103,96,103,101,101,96,103,108,105,103
Polio RdRp inh intensity,106,78,104,102,101,114,102,122,106,104

Grouped by structure, the compounds so far containing two or more sulfur atoms.
(18) O=C1CS/C(=N\S(=O)(=O)c2ccccc2)N1Cc1ccccc1
(44) O=C1Sc2ccc(S(=O)(=O)Nc3ccc(Br)cc3)c3cccc1c23
(62) CCN(CC)S(=O)(=O)c1ccc(N=Nc2sc(N)nc2-c2ccccc2)cc1
(69) CC1CCN(S(=O)(=O)c2ccc(C(=O)Nc3nc(-c4ccncc4)cs3)cc2)CC1
Compound,18,44,62,69
MbtI inh,0,-11,1,0
MenB inh,2,-13,-27,-33
Polio RdRp inh,102,104,96,105
Polio RdRp inh intensity,108,110,78,106

Results in sequence from the list:
Compounds 61 to 70 in MenB inh, in turn: 5, -27, -22, 11, -12, 9, -23, 16, -33, -9
Compounds 61 to 70 in Polio RdRp inh intensity, in turn: 106, 78, 104, 102, 101, 114, 102, 122, 106, 104
Compounds 61 to 70 in Polio RdRp inh, in turn: 103, 96, 103, 101, 101, 96, 103, 108, 105, 103

Later entries
(71) N#Cc1c(-c2ccccc2)nc(SCCN2C(=O)c3ccccc3C2=O)[nH]c1=O
(72) CN1C(C(=O)NCC23CC4CC(CC(C4)C2)C3)=CC(c2ccco2)=NS1(=O)=O
(73) O=C(O)c1cccc(CSc2nnc(COc3ccccc3)o2)c1
(74) Cc1ccc(-n2c(=O)c3ccccc3n3c(SCC(=O)N(C(C)C)C(C)C)nnc23)c(C)c1
(75) Cc1cc2ncn(C(C)c3ccccc3)c2cc1C (configuration not stated)
(76) O=C(Nc1ccc2c(c1)OCO2)C1CCCC1
(77) COc1ccc(CCNC(=O)c2ccc3c(c2)S(=O)(=O)N=C2CCCCCN23)cc1OC
(78) CCOC(=O)C1=C(C)NC2=C(C(=O)C(C(=O)OC)C(C)C2)C1c1ccc(OC)cc1 (configuration not stated)
(79) O=C(Cn1cncn1)N/N=C/c1cccs1
(80) Oc1cccc(O)c1
Compound,71,72,73,74,75,76,77,78,79,80
MbtI inh,-28,-5,4,-18,-10,-22,10,38,13,-13
MenB inh,-8,4,-42,2,-27,-2,-7,-85,-13,-24
Polio RdRp inh,103,103,101,108,104,103,100,99,102,103
Polio RdRp inh intensity,103,107,101,108,106,110,103,101,104,98

(81) COC(=O)C1CCCN1S(=O)(=O)c1ccc(Cl)cc1 (configuration not stated)
(82) Cc1cc(=O)oc2cc(OC(=O)C3CCCN3C(=O)OC(C)(C)C)c(Cl)cc12 (configuration not stated)
(83) CC(=O)NC1C(OCC(C)C)OC(COC(C)=O)C(OC(C)=O)C1OC(C)=O (configuration not stated)
(84) CCn1c(C(=O)N2CCC(C(=O)N3CCc4ccccc4C3)CC2)cc2occc21
(85) COc1cccc(C(=O)/C=C(\Nc2ccc3c(c2)COC3=O)C(=O)O)c1
(86) CCC(C)NC(=O)C1CCC(=O)N1CCc1ccccc1 (configuration not stated)
(87) O=c1c(Cl)c(Cl)cnn1C12CC3CC(CC(C3)C1)C2
(88) Cc1cc(=O)c2ccccc2n1CC(N)=O
(89) Cc1ccc(NC(=O)C23CC4CC(CC(C4)C2)C3)cc1
(90) Cc1csc(=O)n1CCC(=O)OCc1cc2ccccc2nc1Cl
Compound,81,82,83,84,85,86,87,88,89,90
MbtI inh,-9,nt,-12,3,-8,9,22,6,-6,1
MenB inh,-13,4,-3,-22,6,20,-9,1,-9,-6
Polio RdRp inh,nt,99,100,101,102,102,102,103,101,100
Polio RdRp inh intensity,nt,105,104,105,107,104,95,101,106,102
